VDR inhibitor: Inhibitors of the vitamin D receptor (VDR): qHTS. VDR-SRC2-3 peptide fluorescence polarization, 2 h. actives 0.93% (n = 400,000). Vitamin D3 receptor (Homo sapiens), P11473. Potency, µM, for the others: max response, negative = inhibition, actives largely listed as inhibitors; active means well fitted inhibition curve with a large enough effect; inconclusive means small, poorly fitted or top-dose-only effect, or another doubt; inactive means no such curve, though single readings can be large or run the other way; further: series mostly up to about 120 µM
Target sequence (P11473 whole entry, looked up): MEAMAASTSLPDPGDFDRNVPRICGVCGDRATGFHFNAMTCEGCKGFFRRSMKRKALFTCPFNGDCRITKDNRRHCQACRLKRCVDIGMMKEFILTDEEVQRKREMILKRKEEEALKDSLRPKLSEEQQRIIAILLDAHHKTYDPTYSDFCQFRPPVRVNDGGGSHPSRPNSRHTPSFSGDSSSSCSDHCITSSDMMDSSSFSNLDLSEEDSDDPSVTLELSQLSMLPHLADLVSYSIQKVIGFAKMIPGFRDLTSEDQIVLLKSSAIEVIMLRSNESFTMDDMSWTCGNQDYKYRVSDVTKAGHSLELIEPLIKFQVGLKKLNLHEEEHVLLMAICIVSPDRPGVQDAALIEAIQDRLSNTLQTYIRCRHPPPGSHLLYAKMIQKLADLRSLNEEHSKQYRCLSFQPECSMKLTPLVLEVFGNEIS
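Fluorescence polarization assay of small-molecule disruption of VDR binding to coregulator peptide SRC2-3. Compounds and controls pin-transferred, then read after 2 h incubation at ambient room temperature.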
Starred values were filed as active, the others as inactive; ? = inconclusive; & = joins results of further samples; [ ] = another dose, or the depositor's remark. On the % scale 0 is the no-effect control and ±100 the full control effect; potency means the concentration at half of the fitted maximal effect.

Cc1cc(=O)oc2cc(OCC(=O)Nc3ccccc3C(=O)O)ccc12
  VDR inhibitor = 30%[activator]
Cc1ccc(CNC(=O)C2CCCN(c3nc4c(C)cc(C)cc4s3)C2)cc1 (centres undefined)
  VDR inhibitor = -4%
COc1cc(-c2nnc3n2N=C(c2ccccc2)CS3)cc(OC)c1OC
  VDR inhibitor = -15%
O=C(Nc1ccccc1C(=O)NC1CC1)c1ccc([N+](=O)[O-])o1
  VDR inhibitor = -12%
COc1ccc(CNc2ccnc(-c3ccc(N(C)C)cc3)n2)c(OC)c1
  VDR inhibitor = -14%
COc1ccc(NC(=O)Cn2c(=O)n(Cc3ccc4c(c3)OCO4)c(=O)c3ccc(C(=O)NC4CCCCC4)cc32)cc1
  VDR inhibitor = -11%
COc1ccccc1NC(=O)CC1SC(=N)N(c2ccccc2)C1=O (centres undefined)
  VDR inhibitor = -1%
CC(=O)Nc1cccn(Cc2c(Cl)cccc2Cl)c1=O
  VDR inhibitor = 6%
O=C(Nc1ccccc1)c1cc(-c2ccccc2Cl)no1
  VDR inhibitor = ?
CCc1sc(C(=O)NCc2ccco2)cc1Br
  VDR inhibitor = -9%

O=C(NC1CC1)C1=C[C@@H](C2CCCCC2)C[C@@H](OCc2ccc(CO)cc2)O1
  VDR inhibitor = -18%
O=C(O)/C=C/c1cn(-c2ccccc2)nc1-c1cc2ccccc2oc1=O
  VDR inhibitor = 8%
Cc1ccc2nc3sc(C(=O)Nc4c(C)[nH]c(=O)[nH]c4=O)c(N)c3cc2c1
  VDR inhibitor = 9%
Fc1ccc(N2CCN(Cc3nnc(-c4ccccc4)o3)CC2)cc1
  VDR inhibitor = 16%
Cc1ccc(-c2csc(NC(=O)c3ccco3)n2)cc1C
  VDR inhibitor = -2%
CC1(C)NC(=O)N(CNc2cc(Cl)ccc2Cl)C1=O
  VDR inhibitor = -12%
Fc1ccc(CNC(=S)NCc2ccccc2)cc1
  VDR inhibitor = -3%
C#CCOCCOCCOCCNc1nc(N2CCN(C(=O)[C@H](CCCCN)n3cc([C@@H](N)C(C)CC)nn3)CC2)nc(N2CCN(C(=O)[C@H](Cc3cc4ccccc4[nH]3)n3cc([C@@H](N)CC(C)C)nn3)CC2)n1 (some centres undefined)
  VDR inhibitor = 12%
NC(=O)C1CCN(C(=O)CCc2nc3sc4c(c3c(=O)[nH]2)CCCC4)CC1
  VDR inhibitor = 9%
Cc1cc(OCCn2cc(/C(N)=N/O)c3ccccc32)ccc1Cl
  VDR inhibitor = 0%

Nc1ncnc(Nc2cccc(Cl)c2Cl)n1
  VDR inhibitor = -10%
Cc1c(C)c2ccc(OCC(=O)Nc3ccc(S(N)(=O)=O)cc3)c(C)c2oc1=O
  VDR inhibitor = 0%
O=C(O)c1ccccc1
  VDR inhibitor = 15%
O=c1[nH]c(C2CCN(S(=O)(=O)c3ccc(C(F)(F)F)cc3)CC2)nc2c1nnn2Cc1ccc(F)cc1
  VDR inhibitor = -3%
COc1ccc(CCNS(=O)(=O)c2cccc3nsnc23)cc1OC
  VDR inhibitor = -8%
O=C(Nc1nnc(-c2cccs2)o1)c1cccc(C(F)(F)F)c1
  VDR inhibitor = ?
COc1ccc(CCNC(=O)c2cc3c(=O)n(C)c4ccccc4c3s2)cc1OC
  VDR inhibitor = -6%
CCc1ccc(NC(=O)CSc2nnc(-c3ccco3)o2)cc1
  VDR inhibitor = 0%
O=C(NCCN1CCCCCC1)C1CCN(S(=O)(=O)N2CCOCC2)CC1
  VDR inhibitor = -6%
COc1ccc(Br)cc1/C=C\C(=O)NCc1cccnc1
  VDR inhibitor = 16%

Cc1c(Br)c(C(N)=O)nn1C
  VDR inhibitor = 0%
CN(C1CCCCC1)S(=O)(=O)c1ccc(F)c(C(=O)Nc2ccc(C(F)(F)F)cc2)c1
  VDR inhibitor = 14%
O=C(CN1CCN(Cc2ccc3c(c2)OCO3)CC1)Nc1ccc2c(c1)OCO2
  VDR inhibitor = 0%
CN1CCN(c2cc(-c3ccccc3Cl)ncn2)CC1
  VDR inhibitor = 2%
O=C(OCc1ccccc1Cl)c1ccc(-n2cnnc2)cc1
  VDR inhibitor = -4%
CC(C)C(=O)NN1c2ccccc2CCc2ccccc21
  VDR inhibitor = 0%
COc1cc(C2NC(=O)NC(c3ccccc3)=C2C(C)=O)c(Br)c(Br)c1O (centres undefined)
  VDR inhibitor = -18%
CC(C)C[C@@H]1CN=C(N)N1C[C@@H]1CCCN1C[C@@H](C(C)C)N1C[C@@H](Cc2ccccc2)N(CCCC2CCCC2)C1=N
  VDR inhibitor = 26%
CCN1CCC2(CCN(C(=O)c3cc(COc4cc(C)ccc4C)on3)C2)C1 (centres undefined)
  VDR inhibitor = 14%
Cc1c(OC(C)C(=O)N2C[C@H]3C[C@@H](C2)c2cccc(=O)n2C3)ccc2c3c(c(=O)oc12)CCCC3 (some centres undefined)
  VDR inhibitor = -9%

COc1ccc(-c2onc(C)c2C)cc1S(=O)(=O)NC1CCC(C)CC1 (centres undefined)
  VDR inhibitor = 8%
CCOC(=O)c1ccccc1NC(=O)c1c(O)c2ccccc2n(CC)c1=O
  VDR inhibitor = 6%
COc1cccc(NS(=O)(=O)c2ccc3[nH]cc(C(=O)N4CCCCCC4)c(=O)c3c2)c1
  VDR inhibitor = -14%
CN(C)c1nc(-c2ccccc2)nc(-c2ccc(Cl)cc2)c1C#N
  VDR inhibitor = -2%
COC(=O)c1c(C)[nH]c(C(=O)OCC(=O)NCC(C)C)c1C
  VDR inhibitor = 13%
O=C(CSc1nnc2c(n1)[nH]c1ccccc12)Nc1cccc(S(=O)(=O)N2CCOCC2)c1
  VDR inhibitor = 0%
CCOc1ccccc1N1CCN(C(=O)c2ccc(-c3ccc(OC(C)=O)cc3)cc2)CC1
  VDR inhibitor = ?
Fc1ccc(CNc2ncnc3nc[nH]c23)cc1
  VDR inhibitor = 4%&8%
Cn1cnc([N+](=O)[O-])c1Nc1ccccc1O
  VDR inhibitor = 11%
CC(Cc1ccc(Cl)cc1)N1CCC(n2nccc2NC(=O)C2CCCC2)CC1 (centres undefined)
  VDR inhibitor = 2%

A draw from above in order of SMILES length, high to low.
O=C(CSc1nnc2c(n1)[nH]c1ccccc12)Nc1cccc(S(=O)(=O)N2CCOCC2)c1
  VDR inhibitor = 0%
COc1ccc(-c2onc(C)c2C)cc1S(=O)(=O)NC1CCC(C)CC1 (centres undefined)
  VDR inhibitor = 8%
COC(=O)c1c(C)[nH]c(C(=O)OCC(=O)NCC(C)C)c1C
  VDR inhibitor = 13%
Cn1cnc([N+](=O)[O-])c1Nc1ccccc1O
  VDR inhibitor = 11%
Fc1ccc(CNc2ncnc3nc[nH]c23)cc1
  VDR inhibitor = 4%&8%

(next part)
CC1Cc2ccccc2N1C(=O)C1CCCN(S(=O)(=O)c2cccc3cccnc23)C1 (centres undefined)
  VDR inhibitor = -7%
Cc1cc2c(=O)n(Cc3ccco3)c(SCC(=O)NCc3ccco3)nc2s1
  VDR inhibitor = 5%
COc1ccc(C(=O)NC(C)CCCC(C)(C)O)cc1OC1CCN(C(C)=O)CC1 (centres undefined)
  VDR inhibitor = 1%
Cc1nnc(SCC(=O)Nc2ncc(S(=O)(=O)c3ccc([N+](=O)[O-])cc3)s2)s1
  VDR inhibitor = -2%
O=C(N/N=C/c1ccc2c(c1)OCO2)c1cccnc1
  VDR inhibitor = -17%
COc1ccc2c(c1)C1=NN(/C(C)=C\C(C)=O)C(c3ccccc3)C1CC2 (centres undefined)
  VDR inhibitor = 27%
NC(=O)NC(=O)COC(=O)c1ccc2c(c1)C(=O)N(Cc1ccccc1)C2=O
  VDR inhibitor = ?
CCOCCCn1c(SCC(=O)NCc2ccccc2)nc2c(sc3ccccc32)c1=O
  VDR inhibitor = 6%
COc1ccc(-c2cnnn2-c2ccc(NC(=O)/C=C/c3ccc(OC)c(OC)c3)cc2)cc1
  VDR inhibitor = 1%
O=C(CSc1ccccc1)Nc1nc2ccccc2[nH]1
  VDR inhibitor = 1%

COc1ccc(S(=O)(=O)c2c(C(=O)c3ccc(C)c(C)c3)cnc3ccc(F)cc23)cc1
  VDR inhibitor = 0%
COc1cc2c(cc1OC)C(c1ccccc1O)N(C1CC(=O)N(c3ccccc3)C1=O)CC2 (centres undefined)
  VDR inhibitor = -6%
COc1cccc(CNC(=O)C2Cc3cc(S(=O)(=O)N4CCCC4)ccc3N2C(C)=O)c1OC (centres undefined)
  VDR inhibitor = -9%
COc1cccc(C2CC(c3cccs3)=NN2C(=O)CSc2nc3ccccc3o2)c1OC (centres undefined)
  VDR inhibitor = -9%
N#CCC(=O)N/N=C/c1ccc(OS(=O)(=O)c2ccccc2)cc1
  VDR inhibitor = 9%
CCOC(=O)C1CCN(c2cc3c(cc2NC(=O)c2ccc(F)cc2)n(C)c(=O)n3C)CC1
  VDR inhibitor = -2%
CCN(CC)CCNCc1cc(Cl)ccc1OCc1ccccc1F
  VDR inhibitor = 7%
Cc1ccc(S(=O)(=O)NC2CC2)cc1[N+](=O)[O-]
  VDR inhibitor = 23%
COc1ccc(/C=C/C(=O)NC(C)(C)C)cc1S(=O)(=O)N1CCOCC1
  VDR inhibitor = -20%
c1ccc(-c2nnc(-c3ccccn3)nn2)nc1
  VDR inhibitor = -12%

S=C(NCc1ccncc1)Nc1ccc(Cl)cc1
  VDR inhibitor = 15%
COc1cc2c(cc1OC)-c1cc3nc4ccccc4nc3n1C(C)(C)C2
  VDR inhibitor = 7.1µM*
COc1ccc(CNC(=O)c2cc(S(=O)(=O)N3CCCCC3)ccc2Cl)cc1OC
  VDR inhibitor = -21%
COc1cc(C(=O)NC(=S)NNC(=O)[C@H]2C[C@@H]2c2ccccc2)cc(OC)c1OC
  VDR inhibitor = 10%
O=C(CN1CCN(Cc2ccc(F)cc2Cl)S1(=O)=O)Nc1ccc(F)cc1
  VDR inhibitor = 4%
CCOc1ccc(N2C(=O)CC(N3CCN(c4ccccc4OC)CC3)C2=O)cc1 (centres undefined)
  VDR inhibitor = -31%
COC(=O)CCC(=O)OC1(C)C(=O)C2=CN(CC3CC3)C(c3ccc(OC)cc3)=CC2=C(Br)C1=O (centres undefined)
  VDR inhibitor = ?
C=Cc1ccc(Cn2c(C(=O)OC)cc3sc(C)cc32)cc1
  VDR inhibitor = -2%
Cc1ccc(Nc2nc3ccccc3n3cnnc23)cc1Cl
  VDR inhibitor = -7%
O=C(c1ccc(F)cc1)N1CCC(C(=O)N(Cc2ccccc2)c2ccccc2)CC1
  VDR inhibitor = -23%

N#Cc1cnn(-c2ccccc2)c1NC(=O)CN1CCN(c2ccccc2)CC1
  VDR inhibitor = -4%
CC(=O)N1CCCc2cc(S(=O)(=O)N(C)Cc3ccccc3)ccc21
  VDR inhibitor = 4%
Oc1cccc2ccc(/C=C/c3ccccc3Br)nc12
  VDR inhibitor = 4%
CC(C)(C)OC(=O)C[C@H]1C/C=C\C[C@@H](CC(=O)N[C@H](CO)Cc2ccccc2)C(=O)NC[C@@H](c2ccccc2)OC1=O
  VDR inhibitor = -7%
O=c1[nH]c(-c2ccc3c(c2)OCO3)nc2c1sc(=S)n2-c1ccccc1
  VDR inhibitor = 7%
COc1cccc(/C=N/n2c(CO)nc3ccccc32)c1OC
  VDR inhibitor = -2%
CCC(O)c1c(-c2ccccc2)nn(C)c1Cl (centres undefined)
  VDR inhibitor = -15%
NC(=S)Nc1cccc2cc3ccccc3cc12
  VDR inhibitor = -19%
OC(COCc1ccccc1)Cn1cnc2ccccc21 (centres undefined)
  VDR inhibitor = -8%
CCNC(=O)COc1ccc(S(=O)(=O)Nc2ccccc2)cc1
  VDR inhibitor = -3%

Cc1cccc(COc2ccccc2/C=N/Nc2ccc([N+](=O)[O-])cc2)c1
  VDR inhibitor = -11%
CCOC(=O)C1=C(C)NC(SC)=C(C#N)C1CC(C)C (centres undefined)
  VDR inhibitor = 2%
O=C(NCCN1CCOCC1)c1cc(=O)[nH]c2ccc(Br)cc12
  VDR inhibitor = 2%
COc1cccc(-c2ccc3c(N)c(C(=O)Nc4ccccc4C)sc3n2)c1
  VDR inhibitor = 4%
O=C(NCc1ccc(F)cc1)C1CCCN1S(=O)(=O)c1cccc2nsnc12 (centres undefined)
  VDR inhibitor = -3%
Cc1ccc(S(=O)(=O)NNC(=O)Nc2ccccc2F)c(C)c1
  VDR inhibitor = -4%
O=C(NCCc1ccccc1)C(=O)NCC(c1ccco1)N1CCOCC1 (centres undefined)
  VDR inhibitor = 0%
O=C(NCC1CCCO1)c1ccc(NC(=O)c2cccc(Cl)c2)cc1 (centres undefined)
  VDR inhibitor = ?
CCOc1ccc(C(=O)Nc2ccc3nc4c(c(Nc5ccccc5OC)c3c2)CCCC4)cc1
  VDR inhibitor = ?
Clc1ccc(CNCc2cccs2)cc1Cl
  VDR inhibitor = -19%

O=C(NC1CCCC1)C1(c2ccccc2)CCN(S(=O)(=O)c2ccccc2)CC1
  VDR inhibitor = 9%
CC(C(=O)NCCN1C(=O)S/C(=C\c2cccs2)C1=O)N1C(=O)c2ccccc2C1=O (centres undefined)
  VDR inhibitor = -8%
COC(=O)N1CCC2(CCCN(C(c3ccccc3)c3ccccc3)C2)CC1
  VDR inhibitor = -20%
Cc1cccn2cc(CNS(=O)(=O)c3ccc4ccccc4c3)nc12
  VDR inhibitor = -8%
CC1Sc2ccc(S(=O)(=O)N3CCC(C(=O)Nc4cccc(Cl)c4)CC3)cc2NC1=O (centres undefined)
  VDR inhibitor = -2%
COC(=O)c1[nH]c2ccc(Br)cc2c1NC(=O)CN1CCCCC1CCO (centres undefined)
  VDR inhibitor = 7%
Cc1scc(CN2CCN(c3ccc(F)cc3)CC2)c1C
  VDR inhibitor = 6%
Cc1ccc(NC(=O)CN2CCC(C(=O)c3ccc(F)cc3)CC2)cc1
  VDR inhibitor = 1%
O=C(Nc1cccc(S(=O)(=O)C(F)F)c1)c1ccc(S(=O)(=O)N2CCOCC2)cc1
  VDR inhibitor = -13%
CC(C)c1ccc(NC(=O)C2CC3CCC2C3)cc1 (centres undefined)
  VDR inhibitor = 0%
Cc1ccc(-c2nc3ccc(Br)cn3c2Nc2ccc3c(c2)OCO3)o1
  VDR inhibitor = 16%
CCn1cc(C(=O)N2CCN(c3ccccc3)CC2)c(=O)c2cc(S(=O)(=O)N3CCC(C)CC3)ccc21
  VDR inhibitor = -7%

A portion of the library; the hit share may differ from the screen's.
